Screens as filed in PubChem BioAssay.
p53 reactivation: restores transcriptional activity of mutant p53 | H1299 p53-A138V BP100-luciferase reporter, luminescence, 24 h | Potency, µM (top dose mostly 92.2 µM), for inactives: at the highest dose activity change, positive = activation, hits mostly activators | hit rate 0.063% among 320,000 | AID 504706; further: % of control where 0% means no effect; nearly all actives have a fitted effect of over 45% in size
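p53-null H1299 cells stably carrying temperature-sensitive p53-A138V and a BP100-luciferase reporter were pinned with compounds (4-point, 1:5 series) and held 24 hrs at 37 deg C. Luminescence was read 10 min after detection reagent.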
BRCA1 expr act: BRCA1 expression activation; hit rate 1.1% among 380,000; Potency, µM (doses to about 46.1 µM), for inactives: at the top dose activation, hits mostly activators; MCF7-BRCA1-FFLuc reporter, luminescence, 48 h; response scale: scaled: vehicle 0%, 10 µM genistein 100%; further: nearly all actives have a fitted effect of over 80% in size; some results filed as inactive show a strong effect at the top dose
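Luminescence from a BRCA1-driven firefly luciferase in MCF7 cells was the read-out, taken 15 min after substrate addition following 48 h compound exposure at 37 °C. Data were normalized to a 10 microM genistein control and DMSO vehicle.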
VP16 counter: inhibits Gal4-VP16 luciferase reporter, ROR gamma counter-screen | Potency, µM (series often up to 53.6 µM), inactives show top-dose activity, negative = inhibition, most hits filed as inhibitors | hit rate 3.5% among 310,000 | Drosophila S2 Gal4-VP16 UAS-luciferase, luminescence, 20 h;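 further: Gal4-VP16 expression switched on by copper sulfate through the metallothionein promoter; on the % scale 0 is the no-effect control and ±100 the full control effect; nearly all actives have a fitted effect of over 50% in size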
uPA surface inh: inhibitors of cell surface uPA generation; Potency, µM (titrated, usually from 38.3 µM), for inactives: top-dose activity change, negative = inhibition, actives largely listed as inhibitors; AID 540303; hit rate 0.31% among 330,000; cell surface uPA generation assay, qHTS; active means well fitted inhibition curve with a large enough effect; inconclusive means small, poorly fitted or top-dose-only effect; inactive means no such curve, though single readings can be large or run the other way; tested in mouse RAW 264.7 cells; further: on the % scale 0 is the no-effect control and ±100 the full control effect; nearly all actives have a fitted effect of over 55% in size
NPC1 prom act: activates the NPC1 promoter | Huh7 NPC1 promoter luciferase reporter, 24 h | hit rate 2.4% among 320,000 | Potency, µM (titrated, usually from 9.22 µM), inactives show top-dose activation, actives largely listed as activators;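 further: % of control where 0% means no effect; nearly all actives have a fitted effect of over 60% in size; reporter is driven by a mutant NPC1 promoter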
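Compounds in DMSO were transferred onto Huh7 NPC1-luciferase reporter cells pre-incubated 2 h; after 24 h at 37 °C, Amplite reagent was dispensed and luminescence recorded 10 min later.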
MBNL1-CUG inh: blocks human MBNL1 binding to CUG repeat RNA; TR-FRET MBNL1-His/biotin-(CUG)12 binding, 665/545 ratio; Potency, µM (doses to about 57.5 µM), for the others: top-dose activity change, negative = inhibition, most hits filed as inhibitors; hit rate 0.036% among 280,000; active means well fitted inhibition curve with a large enough effect in the signal ratio, with a control signal flat, not every such curve was filed as active; inconclusive means small, poorly fitted or top-dose-only effect, or effect the other way, or a change in a side signal; inactive means no such curve, though single readings can be large or run the other way; the % refers to the signal ratio; further: on the % scale 0 is the no-effect control and ±100 the full control effect
Target sequence (Q9NR56 whole entry, looked up): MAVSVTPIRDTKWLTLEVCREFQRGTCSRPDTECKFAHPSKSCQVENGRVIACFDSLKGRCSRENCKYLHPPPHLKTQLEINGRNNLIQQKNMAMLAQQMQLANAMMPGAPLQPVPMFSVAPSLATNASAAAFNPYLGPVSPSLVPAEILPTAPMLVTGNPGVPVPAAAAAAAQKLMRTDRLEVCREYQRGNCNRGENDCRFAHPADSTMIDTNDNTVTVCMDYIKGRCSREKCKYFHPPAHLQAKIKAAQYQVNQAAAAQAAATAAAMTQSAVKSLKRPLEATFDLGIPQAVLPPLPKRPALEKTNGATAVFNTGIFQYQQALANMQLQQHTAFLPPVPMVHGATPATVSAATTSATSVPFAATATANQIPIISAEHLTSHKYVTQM
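Inhibition of protein-RNA binding appears as loss of TR-FRET between terbium anti-His antibody on MBNL1-His and streptavidin-XL665 on biotin-(CUG)12. Activity is normalized to buffer-only and uninhibited-complex controls.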
FLuc modulator: inhibits or activates purified firefly luciferase, miR-21 counter-screen | P08659 | purified FLuc, Km substrates, luminescence inhibition | Potency, µM (series often up to 57.5 µM), for inactives: at the top dose activity change, negative = inhibition, most hits filed as inhibitors | hit rate 6.9% among 360,000 | AID 588342;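 further: plate controls were vehicle for no effect and reference inhibitor for full effect; nearly all actives have a fitted effect of over 55% in size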
Target sequence (P08659 whole entry, looked up): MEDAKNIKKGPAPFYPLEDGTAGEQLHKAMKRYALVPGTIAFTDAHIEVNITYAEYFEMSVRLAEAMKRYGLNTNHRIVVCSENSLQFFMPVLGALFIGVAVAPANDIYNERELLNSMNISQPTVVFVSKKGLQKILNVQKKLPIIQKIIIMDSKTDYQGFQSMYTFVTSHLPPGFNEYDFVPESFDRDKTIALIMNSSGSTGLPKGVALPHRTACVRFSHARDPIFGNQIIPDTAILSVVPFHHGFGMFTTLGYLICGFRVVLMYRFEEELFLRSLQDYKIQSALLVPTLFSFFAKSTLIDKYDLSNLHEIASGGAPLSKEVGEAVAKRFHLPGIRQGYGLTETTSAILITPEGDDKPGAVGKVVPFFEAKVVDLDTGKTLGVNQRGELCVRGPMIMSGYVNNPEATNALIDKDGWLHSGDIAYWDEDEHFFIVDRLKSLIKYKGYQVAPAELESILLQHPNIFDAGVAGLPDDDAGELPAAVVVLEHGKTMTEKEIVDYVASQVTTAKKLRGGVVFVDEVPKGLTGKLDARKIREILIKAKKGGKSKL
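Purified P. pyralis luciferase (10nM final) with 10uM D-luciferin and 10uM ATP (Km levels) in 50mM Tris acetate pH 7.5, 10mM Mg acetate, 0.01% Tween-20, 0.05% BSA; qHTS 6-point titration, ~60 µM downward; luminescence read.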
ELG1 genotoxic: inducers of genotoxicity in HEK293T ELG1-luciferase cells; HEK293T ELG1-luciferase reporter, luminescence, 16 h; Potency, µM (highest dose often 46 µM), for the others: top-dose activity change, positive = activation, most hits filed as activators; hit rate 1.3% among 330,000; AID 504466; further: % of control where 0% means no effect; nearly all actives have a fitted effect of over 60% in size
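HEK293T cells expressing luciferase-tagged ELG1 were treated with compound or DMSO for 16 hr at 37°C. Luciferase activity was then read after 30 min with ONE-Glo at room temperature; rising signal flags genetic stress.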
Rab9 promoter act: activators of Rab9 promoter | Huh7 Rab9 promoter-luciferase reporter, luminescence, 24 h | Potency, µM (highest dose often 9.22 µM), inactives show top-dose activation, negative = inhibition, usual class: activators | hit rate 2.8% among 320,000 | AID 485297; further: % of control where 0% means no effect; nearly all actives have a fitted effect of over 60% in size
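Luminescence from Amplite-detected luciferase (10 minutes, ambient) reports Rab9 promoter activation. Before that, stable Rab9-luciferase Huh7 cells (1500/well, reduced-serum OP-MEM I plus 10% FBS) were exposed to compound for 24 hours at 37C.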
Numbers without * were called inactive; & = joins results of further samples; [ ] = another dose, or the depositor's remark. Unless noted, the call rests on the fitted dose curve; in most records, active means well fitted curve in the direction sought with a large enough effect; inconclusive means small, poorly fitted or top-dose-only effect, or another doubt; inactive means no such curve, though single readings can be large; an effect the other way counts as inactive or inconclusive. Potency means the concentration at half of the fitted maximal effect. A portion of the library, so the mix of outcomes need not match the whole.

Screening Cc1cc(C)n2nc[n+](C)c2n1 returned p53 reactivation -0.6%, BRCA1 expr act -5.1%, VP16 counter 3.5%, uPA surface inh 10.5%, NPC1 prom act 1.3%, MBNL1-CUG inh 6.2%, FLuc modulator 0.0%, ELG1 genotoxic -2.0% and Rab9 promoter act -4.5%.
CCN1/C(=C/c2sc(-c3ccccc3C)c[n+]2C)Sc2ccccc21 was read as p53 reactivation 0.9%, BRCA1 expr act -51.7%, VP16 counter 0.9%, NPC1 prom act -35.3%[inhibitor], MBNL1-CUG inh inconclusive, FLuc modulator 0.1%, ELG1 genotoxic -16.4% and Rab9 promoter act -39.2%[inhibitor].
Cn1c(-[n+]2c(-c3ccccc3)cc(-c3ccccc3)cc2-c2ccccc2)nc2c([N+](=O)[O-])cccc21 was read as p53 reactivation 19.5%, BRCA1 expr act -98.3%[inhibitor], VP16 counter -14.8%, uPA surface inh -17.1%, NPC1 prom act -1.0%, MBNL1-CUG inh inconclusive, FLuc modulator -1.6%, ELG1 genotoxic -7.4% and Rab9 promoter act -0.4%.
For CCN(CC)C(=O)C1CCN(Cc2ccc(Br)cc2)CC1 the results were p53 reactivation 7.8%, BRCA1 expr act -10.4%, VP16 counter -1.8%, uPA surface inh 0.6%, NPC1 prom act 1.6%, MBNL1-CUG inh -5.9%, FLuc modulator -1.8%, ELG1 genotoxic -0.2% and Rab9 promoter act -4.2%.
Screening COc1ccc(NC(C)=[N+](C)CCNS(=O)(=O)c2ccc(Cl)cc2)cc1Cl returned p53 reactivation -19.2%, BRCA1 expr act 0.0%, VP16 counter -3.0%, uPA surface inh 0.3%, NPC1 prom act -0.9%, MBNL1-CUG inh -1.5%, FLuc modulator 1.7%, ELG1 genotoxic -5.3% and Rab9 promoter act 4.3%.
`c1ccc(COc2ccc(OCCCCN3CCCC3)cc2)cc1` gave p53 reactivation 11.2µM*, BRCA1 expr act 8.7%, VP16 counter -25.6%, uPA surface inh -6.0%, NPC1 prom act 2.24µM*, MBNL1-CUG inh -10.3%, FLuc modulator 12µM*, ELG1 genotoxic inconclusive and Rab9 promoter act 2.51µM*.
Screening CCCN1CCC(=NNc2ccc(C(=O)O)cc2)CC1 returned p53 reactivation -2.3%, BRCA1 expr act 14.8%, VP16 counter -17.1%, uPA surface inh 3.2%, NPC1 prom act 13.9%, MBNL1-CUG inh 3.2%, FLuc modulator inconclusive, ELG1 genotoxic inconclusive and Rab9 promoter act -0.5%.
For O=S(=O)(c1cccc(Cl)c1Cl)N1CCN(C(=S)NCCCN2CCOCC2)CC1 the results were p53 reactivation -2.8%, BRCA1 expr act -7.2%, VP16 counter 1.1%, uPA surface inh -8.4%, NPC1 prom act 1.4%, MBNL1-CUG inh -1.4%, FLuc modulator 0.5%, ELG1 genotoxic -10.9% and Rab9 promoter act 0.0%.
For C=CCc1cc(C)ccc1OCCOCCn1ccnc1 the results were p53 reactivation 6.4%, BRCA1 expr act -31.4%, VP16 counter -2.0%, uPA surface inh -0.5%, NPC1 prom act -4.4%, MBNL1-CUG inh -10.8%, FLuc modulator 5.9%, ELG1 genotoxic -3.2% and Rab9 promoter act -13.8%.
For CCOc1ccc(CN2CCN(S(=O)(=O)c3ccc(NC(C)=O)cc3)CC2)cc1OC the results were p53 reactivation -5.3%, BRCA1 expr act -2.2%, VP16 counter -24.8%, uPA surface inh 11.7%, NPC1 prom act 0.6%, MBNL1-CUG inh -12.4%, FLuc modulator 5.0%, ELG1 genotoxic -3.5% and Rab9 promoter act -15.6%.
`CCOC(=O)c1c(-c2ccccc2)csc1NC(=O)C(C)NCCCN1CCOCC1` (stereo not drawn) gave p53 reactivation -0.8%, BRCA1 expr act -50.6%, VP16 counter -9.8%, uPA surface inh -3.7%, NPC1 prom act -4.1%, FLuc modulator 0.4%, ELG1 genotoxic -5.8% and Rab9 promoter act -2.5%.
For C[n+]1ccc(/C=C/c2ccccc2O)c2ccccc21 the results were p53 reactivation -3.8%, BRCA1 expr act -26.5%, VP16 counter -8.5%, uPA surface inh -2.8%, NPC1 prom act -6.4%, MBNL1-CUG inh inconclusive, FLuc modulator -15.4%, ELG1 genotoxic -12.4% and Rab9 promoter act -6.1%.
Screening COc1cccc(OC)c1OCCN(C)C returned p53 reactivation 2.3%, BRCA1 expr act 8.1%, VP16 counter -11.4%, uPA surface inh 3.4%, NPC1 prom act 3.5%, MBNL1-CUG inh -4.7%, FLuc modulator 18.5%, ELG1 genotoxic -4.1% and Rab9 promoter act 4.9%.
Screening C=Cc1ccc2c(c1)N(C)C(=C)S2 returned p53 reactivation 1.7%, BRCA1 expr act -1.6%, VP16 counter 10.9%, uPA surface inh 1.7%, NPC1 prom act 0.6%, MBNL1-CUG inh 2.0%, FLuc modulator -18.6%, ELG1 genotoxic -1.0% and Rab9 promoter act -1.4%.
For CCCCCCCC[n+]1cccc2c3ccccc3ccc21 the results were p53 reactivation -5.4%, BRCA1 expr act -80.6%, VP16 counter -29.2%, uPA surface inh 0.891µM*, NPC1 prom act -44.6%[inhibitor], MBNL1-CUG inh inconclusive, FLuc modulator -4.1%, ELG1 genotoxic -9.5% and Rab9 promoter act -38.5%[inhibitor].
`COc1cc(CNCc2cc(OC)c(OC)c(OC)c2)cc(OC)c1` gave p53 reactivation 5.0%, BRCA1 expr act -5.6%, VP16 counter -6.0%, uPA surface inh -11.9%, NPC1 prom act -3.2%, MBNL1-CUG inh -4.0%, FLuc modulator -1.5%, ELG1 genotoxic -8.6% and Rab9 promoter act -10.0%.
For O=C(C1CCN(Cc2cc(Cl)ccc2O)CC1)N1CCN(Cc2ccccc2)CC1 the results were p53 reactivation 24.6%, BRCA1 expr act -32.3%, VP16 counter 1.8%, uPA surface inh -5.6%, NPC1 prom act -0.6%, MBNL1-CUG inh -3.8%, FLuc modulator -0.3%, ELG1 genotoxic -10.6% and Rab9 promoter act -12.8%.
`Cc1cc(C)c2nc(N3C(=O)C(O)=C(C(=O)c4ccco4)C3c3ccco3)sc2c1` (stereo not drawn) gave p53 reactivation 24.9%, BRCA1 expr act -12.3%, VP16 counter 27.8%, uPA surface inh 0.3%, NPC1 prom act 0.4%, MBNL1-CUG inh 41.4%[activator], FLuc modulator -11.8%, ELG1 genotoxic 3.3% and Rab9 promoter act -13.6%.
Cc1nn(-c2ccc(C(=O)O)cc2)c(C)c1Oc1ccccc1O was read as p53 reactivation 7.1%, BRCA1 expr act 44.6%, VP16 counter 25.2%, uPA surface inh 14.3%, NPC1 prom act 10.3%, MBNL1-CUG inh 4.3%, FLuc modulator inconclusive, ELG1 genotoxic 15.4% and Rab9 promoter act -1.4%.
Screening Cc1nc(NCCc2ccc(F)cc2)c(C#N)c(C)c1[N+](=O)[O-] returned p53 reactivation -1.6%, BRCA1 expr act -65.5%, VP16 counter -4.8%, uPA surface inh -7.6%, NPC1 prom act -3.1%, MBNL1-CUG inh -4.0%, FLuc modulator 3.6%, ELG1 genotoxic inconclusive and Rab9 promoter act 1.6%.
CC(C)(C)NCC(O)c1ccc(O)c(CO)c1 (stereo not drawn) was read as VP16 counter -8.2%&-1.9%&-4.5%, NPC1 prom act -3.4%&-0.9%[46.1 µM] and Rab9 promoter act -2.4%&0.5%[46.1 µM].
Screening O=C(O)C1=C[C@@H](O)[C@@H](O)[C@H](O)C1 returned BRCA1 expr act 14.8%, VP16 counter 1.4% and uPA surface inh 6.3%.
`CC1CCN(CCCCOc2ccccc2-c2ccccc2)CC1` gave p53 reactivation 1.5%, BRCA1 expr act -60.3%, VP16 counter 0.4%, uPA surface inh -11.7%, NPC1 prom act -0.3%, FLuc modulator -1.1%, ELG1 genotoxic -10.7% and Rab9 promoter act -2.4%.
Screening CC(C)N(CCNCc1nnc(-c2ccccc2)o1)C(C)C returned p53 reactivation 1.3%, BRCA1 expr act 0.7%, VP16 counter 13.2%, uPA surface inh 9.9%, NPC1 prom act -1.9%, MBNL1-CUG inh -3.4%, FLuc modulator 5.4%, ELG1 genotoxic -4.3% and Rab9 promoter act 10.1%.
C[n+]1ccccc1/C=C1\Sc2ccccc2N1CCO was read as p53 reactivation 1.6%, BRCA1 expr act -21.1%, VP16 counter -18.7%, uPA surface inh 1.7%, NPC1 prom act -5.9%, MBNL1-CUG inh inconclusive, FLuc modulator 2.3%, ELG1 genotoxic -8.8% and Rab9 promoter act -5.0%.
CC1CCN(C(=O)C(C)NCc2ccc(F)cc2)CC1 (stereo not drawn) was read as BRCA1 expr act -2.9%, VP16 counter 18.5%, uPA surface inh 0.2%, NPC1 prom act -2.6%, MBNL1-CUG inh -0.6%, FLuc modulator -0.4%, ELG1 genotoxic 1.5% and Rab9 promoter act 2.0%.
CCCCNC(=O)C1CCN(Cc2ccc(OCc3ccccc3)cc2)CC1 was read as p53 reactivation inconclusive, BRCA1 expr act 18.1%, VP16 counter -5.8%, uPA surface inh -16.4%, NPC1 prom act inconclusive, MBNL1-CUG inh -1.8%, FLuc modulator 19µM*, ELG1 genotoxic inconclusive and Rab9 promoter act inconclusive.
`Cc1cc(NC(=O)CN2CCCCCCC2)no1` gave p53 reactivation 2.1%, BRCA1 expr act 15.1%, VP16 counter 5.7%, uPA surface inh -1.8%, NPC1 prom act 1.3%, MBNL1-CUG inh 1.8%, FLuc modulator 4.1%, ELG1 genotoxic 0.2% and Rab9 promoter act -2.1%.
Screening COc1ccc(C(=O)N2CCN(Cc3ccccc3C(F)(F)F)CC2)cc1 returned BRCA1 expr act 12.8%, VP16 counter 14.2%, uPA surface inh -1.2%, NPC1 prom act -2.5%, MBNL1-CUG inh -5.1%, FLuc modulator 0.9%, ELG1 genotoxic 0.9% and Rab9 promoter act 3.6%.
